UCH37 inh – inhibitors of human UCH37 deubiquitinase, primary screen, biochemical, Ub-AMC cleavage, fluorescence. Ubiquitin carboxyl-terminal hydrolase isozyme L5 (Homo sapiens), Q9Y5K5. purified proteasome/UCH37. inhibition, % (no concentration beside the values). actives 0.33% (n = 330,000). AID 588478, 2011;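 active means mean of two replicates above 20%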;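 further: 0% = compound-free wells with enzyme and 100% = wells lacking proteasome; stock transfer was 100 nL into about 20 µL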
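system = Proteasome-associated human UCH37 deubiquitinase | amount = 0.15 nM proteasome as dispensed | medium = pH 7.4 Tris-HCl (50 mM) with ovalbumin, ATP-MgCl2, DTT | incubation = 30 min preincubation with enzyme, 25 min cleavage at room temperature | detection = AMC fluorescence 355/460 nm | read-out basis = percent inhibition | controls = no-proteasome and no-compound wells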
Calb FLC – C. albicans growth inhibition with fluconazole, primary screen, CaCi-2 strain, Alamar Blue fluorescence; actives 0.57% (n = 300,000); C. albicans CaCi-2 (fluconazole-resistant clinical isolate) + fluconazole, 48 h; growth inhibition, % (no concentration beside the values); AID 1979, 2009;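 active means most replicates above 75%; inconclusive means exactly half above 75%; inactive means most below 75%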;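 further: all wells also contain fluconazole at 8 µg/ml as a sub-toxic cotreatment; 0% = median of DMSO wells and 100% = median of geldanamycin control wells; wells of about 8 µL received 7.5 nL stock; the first replicate is given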
T cruzi inh – inhibitors of intracellular T. cruzi growth, primary screen, luminescence, NIH3T3 host cells; T. cruzi beta-gal in NIH3T3, 90 h; inhibition, % (no concentration beside the values); actives 1.4% (n = 300,000); AID 1885, 2009;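 active means mean inhibition across valid replicates above about 55%, limit read from the data; inconclusive means mean below that limit but half or more replicates reach it; inactive means mean below it, under half of replicates reach it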;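 further: signal also drops with host cell toxicity which is not excluded here; 0% = plate median of DMSO wells and 100% = zero luminescence signal; higher percent means less beta-gal luminescence so fewer parasites; stock transfer was 50 nL into about 50 µL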
LANA-H2A inh – blockers of LANA interaction with H2A/H2B – biochemical, FP readout, HTS, primary screen; Protein LANA1 (Human herpesvirus 8 type P (isolate GK18)), Q9QR71; cell-free LANA-H2A/H2B peptide, fluorescence polarization; inhibition, % (concentration not given with the values); actives 0.6% (n = 320,000); AID 2629, 2010; in the data active means inhibition mostly above about 10%, no sharp cut-off; inactive means mostly below about 6.7%;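 further: stock transfer was 7.5 nL into about 10 µL; 0% = median of vehicle wells and 100% = median of positive control wells; one replicate is shown; the record names a cut of 25% in any replicate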
Target sequence (Q9QR71 whole entry, looked up): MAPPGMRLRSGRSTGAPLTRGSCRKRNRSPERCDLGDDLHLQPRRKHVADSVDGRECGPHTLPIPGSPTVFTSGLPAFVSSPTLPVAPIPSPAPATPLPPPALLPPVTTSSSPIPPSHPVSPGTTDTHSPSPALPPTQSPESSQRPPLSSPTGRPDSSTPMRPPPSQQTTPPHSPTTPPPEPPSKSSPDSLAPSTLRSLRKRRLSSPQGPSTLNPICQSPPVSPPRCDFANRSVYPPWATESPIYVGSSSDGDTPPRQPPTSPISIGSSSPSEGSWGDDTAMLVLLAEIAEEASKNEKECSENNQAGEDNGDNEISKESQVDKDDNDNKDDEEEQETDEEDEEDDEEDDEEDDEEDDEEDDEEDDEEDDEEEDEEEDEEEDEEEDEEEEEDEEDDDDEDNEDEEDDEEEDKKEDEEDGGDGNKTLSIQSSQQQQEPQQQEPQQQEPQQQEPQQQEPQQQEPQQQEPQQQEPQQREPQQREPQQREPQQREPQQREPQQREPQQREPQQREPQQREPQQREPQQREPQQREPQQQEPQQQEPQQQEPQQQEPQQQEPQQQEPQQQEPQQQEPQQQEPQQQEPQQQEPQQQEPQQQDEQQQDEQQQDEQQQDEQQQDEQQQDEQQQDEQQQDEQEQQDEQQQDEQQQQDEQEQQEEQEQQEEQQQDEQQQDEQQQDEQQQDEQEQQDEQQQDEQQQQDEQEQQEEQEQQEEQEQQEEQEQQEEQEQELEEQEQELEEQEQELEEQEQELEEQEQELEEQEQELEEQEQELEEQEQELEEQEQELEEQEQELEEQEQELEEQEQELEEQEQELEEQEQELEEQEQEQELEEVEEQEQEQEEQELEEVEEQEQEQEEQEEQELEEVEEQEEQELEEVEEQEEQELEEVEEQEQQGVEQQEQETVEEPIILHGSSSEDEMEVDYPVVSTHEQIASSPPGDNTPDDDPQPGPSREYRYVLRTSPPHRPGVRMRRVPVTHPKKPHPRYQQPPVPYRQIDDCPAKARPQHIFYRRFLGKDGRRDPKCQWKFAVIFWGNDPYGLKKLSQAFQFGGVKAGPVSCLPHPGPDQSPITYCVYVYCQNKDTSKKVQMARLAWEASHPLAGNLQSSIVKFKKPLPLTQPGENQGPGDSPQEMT
Beta cell apopt – inhibitors of cytokine-induced beta cell apoptosis, primary screen, luminescence; INS-1E cytokine-induced death, ATP luminescence, 48 h; percent of positive-control rescue, neutral wells zero; protection from apoptosis, % (test concentration not listed); actives 0.8% (n = 300,000); AID 435005, 2010;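 active means all replicates at 75% or more, or half of them and the mean; inconclusive means half reach 75% but not the mean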;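 further: 0% = cytokine-treated negative control wells and 100% = positive control rescue; higher means more ATP so stronger rescue from cytokine killing; wells of about 40 µL received 100 nL stock; the first replicate is given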
RanGTP-Imp inh – inhibitors of RanGTP-importin-beta interaction, primary screen, biochemical, FRET, CFP-Ran, YFP-importin-beta, homogeneous; Ran GTPase (GTP-bound) - importin-beta complex; cell-free CFP-Ran/YFP-importin-beta FRET ratio; inhibition, % (concentration not given with the values); actives 1.1% (n = 300,000); AID 2216, 2009;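 active means most replicates above 15%; inconclusive means exactly half above 15%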;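 further: 0% = DMSO wells and 100% = Ran loaded with GDP instead of GTP; wells of about 40 µL received 100 nL stock; the first replicate is given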
B2AR ag – beta2AR agonists driving receptor internalization, primary screen, cell-based, FAP fluorogen, flow cytometry. Beta-2 adrenergic receptor (Homo sapiens), P07550. Am2.2-beta2AR cells; reference of the scale not given here. response, % (no concentration beside the values). actives 0.43% (n = 340,000);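 active means response above a set limit, near 3 SD of response in nonfluorescent compounds, cut at about 42% in these data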;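 further: stock transfer was 100 nL into about 11 µL; a reference agonist was the positive control; negative values mostly stem from fluorescent compounds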
Bfl-1 A1 inh – caspase 3/7 activation in MEF A1-2A-BIM cells, primary screen, A1 inhibitor project, cell-based, luminescence, HTS; Caspase-Glo 3/7 luminescence, 3 h; percent of clofoctol response, vehicle zero; caspase activation, % (test concentration not listed); actives 0.066% (n = 330,000); AID 2462, 2010;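 active means over half of replicate activation scores above 10%, or exactly half above 10 with the replicate mean above 10; inconclusive means replicate mean below 10 yet half the replicates above 10; inactive means over half of replicates below 10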;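 further: wells of about 30 µL received 50 nL stock; many hits fall short of the cut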
Starred values were filed as active, the others as inactive; ? = inconclusive; / = not tested or not shown. Compounds were not picked by outcome; about 4.3% have a hit in one of these screens.

cpd	Structure	UCH37 inh	Calb FLC	T cruzi inh	LANA-H2A inh	Beta cell apopt	RanGTP-Imp inh	B2AR ag	Bfl-1 A1 inh
1	O=C(NCCC(c1ccccc1)c1ccccc1)c1cnc2sccn2c1=O	-54	8	18	-10	/	-2.6	-4	0.1
2	O=C(NNC(=O)c1cccc(Br)c1)Nc1ccc(Cl)cc1	-0.9	-27	0	-1.6	-3	-2.9	-2	0.5
3	COC(=O)c1sc(NC(=O)c2c(-c3ccccc3)noc2C)nc1C	0.9	9	-3	-1.3	2	1.3	11	0.0
4	O=C(CN1CCOCC1)n1c2ccccc2c2ccccc21	-0.1	-10	2	2.6	/	3.5	-5	0.1
5	S=c1[nH]nc(-c2cc(-c3ccccc3)n[nH]2)n1/N=C/c1c(Cl)cccc1Cl	/	-1	7	1.4	-1	-0.8	-35	0.4
6	c1csc(-c2nn3c(Cn4cnc5ccccc54)nnc3s2)c1	-1.4	5	15	3.5	-1	-1.9	7	0.0
7	Cc1cc(S(=O)(=O)Nc2ccc(C(=O)NCC(c3ccco3)N3CCCCC3)cc2)ccc1F (stereo not given)	0.7	-1	-10	-1.3	/	5.2	-4	-0.6
8	COc1ccc2c(c1)OC(c1ccccc1)(C(F)(F)F)NC2=O (stereo not given)	1.2	11	7	/	-9	-3.9	-1	1.3
9	COc1ccc(C(=O)COC(=O)C2CCN(S(=O)(=O)c3cccc4cccnc34)CC2)cc1	1.8	43	-8	-4.1	-9	-2.3	1	0.5
10	C[C@H]1CC[C@H]2C(=O)N3[C@H](c4cccc(N5CCCC5=O)c4)[C@@H](C)CC[C@H]3C(=O)N2[C@@H]1c1cccc(N2CCCC2=O)c1	1.0	8	48	0.7	-1	?	/	1.1
11	COc1ccc(-c2cn3c4c(sc3n2)CCCC4)cc1	0.2	6	31	1.2	0	6.5	2	-3.5
12	COC(=O)CSc1nnc(CNC(=O)c2ccc(S(=O)(=O)N(C)C)cc2)n1C	6.2	-11	-14	0.4	-4	-0.2	-7	2.0
13	COc1cc(OC)cc(C(=O)Nc2ncc3c(n2)CC(C)CC3=O)c1 (stereo not given)	-2.0	17	-1	0.5	-2	-4.1	-16	0.5
14	CSc1ncccc1C(=O)Nc1cccc(S(=O)(=O)N2CCCCCC2)c1	5.9	/	/	-3.1	-5	/	9	-1.0
15	Cc1nn(CC(O)Cn2cnc3c2c(=O)n(C)c(=O)n3C)c(C)c1Br (stereo not given)	2.2	6	1	0.2	4	1.0	2	-0.6
16	CC1=CC(C)(C)N2C(=O)C3(SCC(=O)N3c3ccc(O)cc3)c3cc(C)cc1c32 (stereo not given)	4.7	34	-1	3.0	-2	-2.0	-1	/
17	Cc1sc2ncn(CC(=O)N3CCN(c4ccccc4F)CC3)c(=O)c2c1S(=O)(=O)N1CCOCC1	0.6	5	8	-4.0	-5	4.1	5	0.5
18	CC1CCCC(C)N1c1ccc(S(=O)(=O)N2CCOCC2)cc1Cl (stereo not given)	3.7	4	33	-0.1	0	0.1	1	-0.6
19	Cc1cc(OC(=O)c2ccc(C(F)(F)F)cc2)c([N+](=O)[O-])c(=O)[nH]1	8.3	1	-11	0.5	2	6.5	1	0.6
20	COc1ccc(C)cc1NC(=O)c1cc2ccccc2o1	-4.0	-30	21	4.3	6	-3.8	1	-1.8
21	CCN(CC(=O)Nc1c(C(=O)OC)[nH]c2ccc(C)cc12)c1ccc2c(c1)OCO2	3.3	-3	6	-0.6	/	-2.8	12	-0.1
22	C/C(=N\NC(=O)c1c[nH]c2ccccc12)c1ccccn1	/	-30	82*	6.8	17	8.4	-4	-2.1
23	COc1cccc(C(=O)Oc2c(CN3CCOCC3)cc(Cl)c3cccnc23)c1	3.8	104*	34	-0.1	90*	12	-4	-0.7
24	Cc1cc(NC(=O)c2cccc(Br)c2)n[nH]1	1.3	-10	-21	-1.1	-6	3.9	-1	-5.3
25	Cn1c(=O)[nH]c(=O)c2c1nc(NCCCn1ccnc1)n2CCOc1ccccc1	-2.4	6	-1	0.4	1	1.6	-5	0.2
26	CCOC(=O)c1cc(-c2ccc(OC)cc2)nn1-c1ccccc1C(=O)O	-2.0	10	-14	-2.6	4	-0.1	-3	1.3
27	O=C(Cc1c[nH]c2ccccc12)NCc1ccco1	0.5	16	-6	-2.4	-4	-1.9	-2	0.6
28	N#Cc1nc(Cc2cccc3ccccc23)oc1NCCCn1ccnc1	-0.5	-8	23	0.6	5	3.0	-6	-2.3
29	Cc1cccc(NC(=O)CCN2CC(C)CC(C)C2)c1 (stereo not given)	0.3	-48	6	2.0	-11	1.5	-3	-0.4
30	CC(=O)c1ccc(N2CCN(C(=O)c3cccc(Oc4ccccc4)c3)CC2)cc1	2.3	0	-1	1.3	10	1.6	3	-0.1
31	COCCCNC(=O)CCn1c(=O)c2ccccc2n(Cc2cccc([N+](=O)[O-])c2)c1=O	5.8	4	-2	-0.6	0	-4.4	-1	0.5
32	O=C(O)c1ccc(N/N=C/c2cn(Cc3ccccc3F)c3ccccc23)cc1	/	3	-5	-5.4	-9	2.1	2	-5.0
33	O=C(NC1CCN(S(=O)(=O)c2ccc(Cl)cc2)CC1)c1cccnc1	5.3	11	-7	0.0	0	7.9	-9	-1.0
34	CNC(=O)Cn1nc(C)c(S(=O)(=O)N2CCOCC2)c1C	-2.7	/	/	2.6	-1	/	-4	-0.7
35	O=c1oc(Nc2cccc(F)c2)nc2ccccc12	0.5	2	-28	-3.2	-3	?	2	-7.5
36	COC(=O)[C@@H]1Cc2c([nH]c3ccccc23)C2CCC(=O)N21 (stereo not given in full)	-4.2	4	-11	2.7	-9	0.7	-3	0.5
37	COc1ccc(Cl)cc1Nc1nc(N)nc(C(F)(F)F)n1	3.6	17	-7	0.7	6	5.0	-13	-0.1
38	Cc1ccc(NC(=O)c2ccc(OCC3CCCO3)cc2)c(C)c1 (stereo not given)	-0.7	-3	-5	-0.8	-10	-2.3	5	-0.1
39	O=C(CCN=C1NS(=O)(=O)c2ccccc21)Nc1ccc(Cl)cc1F	4.9	/	/	-0.5	0	/	4	0.9
40	CCCCc1c(O)nc(SCC(=O)c2ccccc2)n(-c2ccccc2OC)c1=O	1.2	3	-5	-14	-2	1.0	-10	-1.0
41	O=C(Cc1coc2cc3c(cc12)CCC3)OCC(=O)N1CCCC1=O	2.3	6	-7	-2.0	0	-0.8	5	-0.9
42	CS(=O)(=O)c1ccc(C(=O)N2CC(=O)Nc3ccccc32)cc1	5.2	8	3	1.0	-3	2.2	-6	0.0
43	Cc1ccc(NC(=O)COc2ncnc3cc([N+](=O)[O-])ccc23)cc1S(=O)(=O)N1CCOCC1	4.9	47	41	-0.7	-5	2.8	-8	0.3
44	CC(C)Cn1c(N)c(C(=O)COC(=O)c2ccc([N+](=O)[O-])o2)c(=O)n(C)c1=O	13	-38	11	-2.6	-6	0.4	-6	0.7
45	O=C(NC1CCCC1)c1cc2ccccc2o1	-1.0	13	-22	-115	-2	2.9	1	-0.3
46	O=C(COC(=O)c1cc(S(=O)(=O)N2CCOCC2)ccc1O)NCC1CCCO1 (stereo not given)	-5.2	-1	-5	5.6	0	1.3	-5	-0.3
47	COc1cccc(CN2CCNC(=O)C2CC(=O)NCc2cn3ccccc3n2)c1OC (stereo not given)	-4.5	-4	-5	5.5	-8	-0.8	3	0.2
48	CCOc1ccc(-c2[nH]nc3c2C(c2cccnc2)C(C#N)=C(N)O3)cc1 (stereo not given)	3.7	20	-6	4.1	-6	5.1	-4	-0.2
49	C=CCN1C(=O)C(=O)N(CC(=O)NCC(=O)Nc2ccc(F)c(F)c2F)C1=O	1.1	/	/	-2.0	-5	/	-1	1.0
50	CCOC(=O)N1CCC(NC(=O)c2cc(C(=O)NCc3ccc(F)cc3)ccc2CO)CC1	-0.1	3	-9	-1.4	1	-1.3	-5	2.4

(list continues)
cpd	Structure	UCH37 inh	Calb FLC	T cruzi inh	LANA-H2A inh	Beta cell apopt	RanGTP-Imp inh	B2AR ag	Bfl-1 A1 inh
51	CCOc1ccc(S(=O)(=O)NCc2ccc3c(c2)OCO3)cc1	5.4	-7	11	4.7	/	2.4	4	1.3
52	Cc1onc2c(=O)n(-c3ccccc3)nc(-c3ccccc3)c12	2.0	-7	-2	0.5	-1	0.0	-9	0.4
53	CC(=O)Nc1ccc(S(=O)(=O)NCCC(=O)OCc2csc(CC(=O)Nc3ccccc3C)n2)cc1	1.9	-8	-9	1.3	/	2.7	8	0.0
54	Cc1ccc(S(=O)(=O)c2nc(Nc3ccccc3N3CCOCC3)sc2Cl)cc1	-0.3	3	30	-1.4	-5	0.5	-2	1.1
55	Cc1cccnc1NC(=O)c1ccc(OCC2CCCO2)cc1 (stereo not given)	2.2	/	/	8.5	-3	/	10	-0.3
56	O=C(COc1ccccc1C(=O)O)Nc1cccc2ccccc12	3.0	/	/	6.5	3	/	-10	-1.0
57	CC(CCc1ccccc1)NC(=O)C1CCC1 (stereo not given)	1.6	-4	6	-3.2	-8	2.4	-6	0.7
58	Cc1ccc(S(C)=O)cc1-n1c(=O)n(Cc2ccccc2)c(=O)c2[nH]cnc21 (stereo not given)	5.5	-7	12	-6.1	-1	0.6	8	0.1

Screening results from PubChem BioAssay.
